CtBP-E1A blk = qHTS Assay for Inhibitors of the CtBP/E1A Interaction | 0.49% of 340,000 active | CtBP / adenovirus E1A interaction (AlphaScreen) | activity change, % (test concentration not listed) | AlphaScreen GST-E1A/His-CtBP binding, 1536-well; stronger effect = lower value; control for the full effect not named in the record; in the data active means activity change below about -65%; inconclusive means about -30% to -65%; inactive means above about -30%; also: % is scaled to controls: 0 for no effect and ±100 for the full control effect; compound concentration not given in the record
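Homogeneous bead-based format: GST-tagged E1A captured on glutathione donor beads, His-tagged CtBP on nickel acceptor beads; compounds precede bead addition by 2 h at 37 °C.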
D2 agonist = Beta-Arrestin HTS for Positive Allosteric Modulators of the Human D2 Dopamine Receptor: Agonists; DiscoveRx PathHunter D2 beta-arrestin, luminescence, 90 min; 100% = 57 uM dopamine signal; activation, % (concentration not given with the values); 0.084% of 360,000 active; AID 624465, 2012; D(2) dopamine receptor (Homo sapiens), P14416; in the data active = activation above about 40%; inconclusive = about 15% to 40%; inactive = below about 15%; also: compound concentration not given in the record; the text of the record calls up to 30% inactive
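Agonist mode: compounds alone added to overnight-plated D2 PathHunter cells for 90 min at 37 C, with 57 uM final dopamine (EC100) defining full response. Beta-arrestin recruitment detected by chemiluminescent reagent, read after 1 h at ambient temperature.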
Six1-Eya2 inh = qHTS Assay for Inhibitors of the Six1/Eya2 Interaction. activity change, % (concentration not given with the values). AlphaScreen GST-Six1/His-Eya2 binding, biochemical; stronger effect = lower value; control for the full effect not named in the record. AID 651725, 2012. 0.56% of 360,000 active; in the data active = activity change below about -65%; inconclusive = about -30% to -65%; inactive = above about -30%; also: % is scaled to controls: 0 for no effect and ±100 for the full control effect
Target sequence (O00167 whole entry, looked up): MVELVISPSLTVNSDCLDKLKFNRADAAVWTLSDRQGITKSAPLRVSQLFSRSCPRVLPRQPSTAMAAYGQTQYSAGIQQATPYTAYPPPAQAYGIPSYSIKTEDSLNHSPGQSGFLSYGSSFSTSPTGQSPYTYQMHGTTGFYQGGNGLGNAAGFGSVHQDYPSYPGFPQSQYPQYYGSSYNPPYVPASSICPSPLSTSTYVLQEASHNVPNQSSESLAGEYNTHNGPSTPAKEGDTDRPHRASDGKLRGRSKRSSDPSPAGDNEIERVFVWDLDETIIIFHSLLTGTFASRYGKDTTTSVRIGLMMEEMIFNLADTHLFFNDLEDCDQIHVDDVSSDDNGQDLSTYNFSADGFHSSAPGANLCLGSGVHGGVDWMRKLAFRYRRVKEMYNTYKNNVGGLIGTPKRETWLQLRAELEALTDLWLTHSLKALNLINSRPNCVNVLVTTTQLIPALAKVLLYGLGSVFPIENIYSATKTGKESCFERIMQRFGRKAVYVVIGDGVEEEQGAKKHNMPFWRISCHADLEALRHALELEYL
Target sequence (Q15475 whole entry, looked up): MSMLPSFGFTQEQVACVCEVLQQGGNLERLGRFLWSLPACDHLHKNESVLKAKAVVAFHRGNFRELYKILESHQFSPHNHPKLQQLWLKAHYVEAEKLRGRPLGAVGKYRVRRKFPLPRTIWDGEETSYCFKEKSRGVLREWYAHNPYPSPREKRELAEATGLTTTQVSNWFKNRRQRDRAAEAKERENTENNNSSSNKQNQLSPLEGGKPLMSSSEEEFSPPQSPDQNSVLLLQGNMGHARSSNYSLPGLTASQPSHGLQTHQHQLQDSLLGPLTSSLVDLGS
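AlphaScreen luminescence read after one hour at 37 °C in darkness. Pin-transferred compounds met GST-Six1 and His-Eya2 protein (5X stock 250 nM/500 nM) plus glutathione donor and Ni-chelate acceptor beads (5X, 50 ug/mL).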
PINK1 expr mod = A Quantitative High throughput Screen to Identify Chemical Modulators of PINK1 Expression | PINK1 immunofluorescence, high-content cytometry, 24 h | Potency, µM (titrated, usually from 76.6 µM), for the others: at the highest dose activation (PINK1 increase), hits mostly activators | 0.2% of 410,000 active; active = well fitted activation curve with a large enough effect; inconclusive = small, poorly fitted or top-dose-only effect; inactive = flat fitted curve, though single readings scatter; cell line not stated here;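 also: potency is read from the fitted curve at half-maximal effect; % of control where 0% means no effect; nearly all actives have a fitted effect of over 65% in size; a mitochondrial uncoupler was the plate control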
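Stable cell line, 250 cells/well, 12 h attachment; compounds pinned at 5 concentrations, 24 h; CCCP control. Fixed with nuclear dye, primary antibodies 12 h at 10 degrees C, secondary plus cell stain; laser-scanning cytometer read.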
TRPML1 agonist = qHTS for Agonists of the Human Mucolipin Transient Receptor Potential 1 (TRPML1). Mucolipin-1 (Homo sapiens), Q9GZU1. TRPML1-expressing cells, Ca2+ dye fluorescence, FDSS; host cell line not named in the record; reference of the full effect not given here. activation, % (test concentration not listed). 0.12% of 410,000 active; in the data active = activation above about 50%; inconclusive = about 30% to 50%; inactive = below about 30%; also: 0% is about no effect; the text of the record puts the active cut at 80%
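TRPML1-DL cells, Tet-induced overnight (~16 h, 37 degrees C), loaded 45-90 min at room temperature with Ca8 no-wash calcium dye plus quencher. FDSS fluorescence: 10 s baseline, compound pin-transfer, 110 s agonist read, then EC80 54-4 (4uM final) and 110 s antagonist read.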
D2 potentiator = Beta-Arrestin HTS for Positive Allosteric Modulators of the Human D2 Dopamine Receptor: Potentiators; DiscoveRx D2 beta-arrestin cells, luminescence, 90 min; 100% = 57 uM dopamine signal; potentiation, % (no concentration beside the values); 0.23% of 360,000 active; active = potentiation of 50% or more; inconclusive = 30% to 50%; inactive = 30% or less;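 also: compound concentration not given in the record; tested on top of an EC20 dose of dopamine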
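PathHunter D2 cells, attached overnight at 37 deg C, received compound in DMSO plus dopamine at EC20 (50 nM final) for 90 min at 37 deg C. Beta-arrestin recruitment was read as luminescence after 1 h with detection reagent at ambient temperature.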
* hit, by the source's call; & = joins results of further samples; [ ] = remark or other dose.

CCOC(=O)C1(C)CCCN(C(=O)c2c(-c3ccccc3)noc2C)C1 (configuration not stated) was read as CtBP-E1A blk 4, D2 agonist -4.5, Six1-Eya2 inh 3, PINK1 expr mod -0.5%, TRPML1 agonist -0.6 and D2 potentiator -7.
For CCc1ccc(NC(=O)C2CCN(S(=O)(=O)c3c(C)noc3C)CC2)cc1 the results were CtBP-E1A blk 2, D2 agonist -0.9, Six1-Eya2 inh 1, PINK1 expr mod 2.2%&3.7%, TRPML1 agonist -1.0&-1.2 and D2 potentiator -6.
`Cc1cc2ncc(S(C)(=O)=O)c(N)n2n1` gave CtBP-E1A blk 2, D2 agonist 4.0, Six1-Eya2 inh 5, PINK1 expr mod 0.5%, TRPML1 agonist 0.2 and D2 potentiator 5.
CC(C)c1onc(C(=O)Nc2cccnc2Cl)c1[N+](=O)[O-] was read as CtBP-E1A blk 4, D2 agonist 8.9, Six1-Eya2 inh -1, PINK1 expr mod 0.8%, TRPML1 agonist -0.6 and D2 potentiator -1.
CC(C)C(=O)N1CCC1(C)C(=O)Nc1cccc(Oc2ccccc2)c1 (configuration not stated) was read as CtBP-E1A blk 0, D2 agonist 3.6, Six1-Eya2 inh 6, PINK1 expr mod 1.4%, TRPML1 agonist 2.7 and D2 potentiator -1.
`CCC(C)C(NC=C1C(=O)OC(C)(C)OC1=O)C(=O)O` (configuration not stated) gave CtBP-E1A blk 5, D2 agonist -0.8, Six1-Eya2 inh 7, PINK1 expr mod 13%[38.3 µM], TRPML1 agonist 1.8 and D2 potentiator -8.
c1ccc(CNc2nc(Oc3ccncc3)c3sccc3n2)cc1 was read as CtBP-E1A blk -10, D2 agonist -3.0, Six1-Eya2 inh -11, PINK1 expr mod 3.2%, TRPML1 agonist -0.7 and D2 potentiator -12.
For CCC1(CC)C(=O)NC(=O)NC1=Nc1ccccc1 the results were CtBP-E1A blk 2, D2 agonist 1.3, Six1-Eya2 inh 4, PINK1 expr mod 0.3%, TRPML1 agonist 0.7 and D2 potentiator -4.
Screening CN1CCc2nc(NC(=O)COc3ccc(C#N)cc3)sc2C1 returned CtBP-E1A blk 2, D2 agonist -3.4, Six1-Eya2 inh 3, PINK1 expr mod -1.2%, TRPML1 agonist -1.0 and D2 potentiator -13.
COc1cc(NC(C)=O)c2ncccc2c1[N+](=O)[O-] was read as CtBP-E1A blk 0, D2 agonist 9.4, Six1-Eya2 inh 0, PINK1 expr mod 2.7%, TRPML1 agonist 0.4 and D2 potentiator 15.
For CN(Cc1ccccc1)C(=O)c1cc(=O)[nH]c2ccccc12 the results were D2 agonist -3.1, Six1-Eya2 inh 5, PINK1 expr mod 0.7%, TRPML1 agonist 0.5 and D2 potentiator -10.
CCc1cccc(C)c1NC(=O)COC(=O)C1CCN(S(=O)(=O)c2ccccc2)CC1 was read as CtBP-E1A blk 3, D2 agonist -4.3, Six1-Eya2 inh 1, PINK1 expr mod 0.0%, TRPML1 agonist -0.1 and D2 potentiator -4.
`CCCCCOCC(O)CCC(=O)NN` (configuration not stated) gave CtBP-E1A blk -2, D2 agonist -1.3, Six1-Eya2 inh -4, PINK1 expr mod 1.0%, TRPML1 agonist 0.4 and D2 potentiator -3.
`COc1cccc(/C=N/Nc2nn3cnnc3c3ccccc23)c1` gave CtBP-E1A blk -79*, D2 agonist -0.6, Six1-Eya2 inh -71*, PINK1 expr mod 2.1%, TRPML1 agonist 0.1 and D2 potentiator -7.
COc1ccc(NC(=S)Nc2cccc(S(=O)(=O)N3CCCCC3)c2)cc1 was read as CtBP-E1A blk 2, D2 agonist 2.5, Six1-Eya2 inh -3, PINK1 expr mod 4.2%, TRPML1 agonist -0.2 and D2 potentiator 1.
`COC(=O)CN(C)C(=O)c1cccc(OC2CCN(S(=O)(=O)N(C)C)CC2)c1` gave CtBP-E1A blk 7, D2 agonist 2.6, Six1-Eya2 inh 1, PINK1 expr mod 1.2%, TRPML1 agonist 0.4 and D2 potentiator -2.
Cc1ccc(/C=C2\SC(=S)N(CCC(=O)N3CCCCC3)C2=O)cc1 was read as CtBP-E1A blk 0, D2 agonist -3.8, Six1-Eya2 inh -2, PINK1 expr mod 2.4%, TRPML1 agonist -0.2 and D2 potentiator -1.
Cc1ccc(C(=O)NC2CC(C)(C)NC(C)(C)C2)cc1Cl was read as CtBP-E1A blk -9, D2 agonist 3.6, Six1-Eya2 inh -2, PINK1 expr mod 0.2%, TRPML1 agonist 0.0 and D2 potentiator -10.
For COc1ccc(CCN(C)C(=S)Nc2cccc(C)c2)cc1OC the results were CtBP-E1A blk -13, D2 agonist -3.0, Six1-Eya2 inh 2, PINK1 expr mod 0.5%, TRPML1 agonist -0.2 and D2 potentiator -13.
For Cn1c(CC(=O)Nc2ccccc2)nnc1SCC(=O)Nc1ccc(N2CCOCC2)cc1 the results were CtBP-E1A blk 2, D2 agonist -0.8, Six1-Eya2 inh 5, PINK1 expr mod 3.1%, TRPML1 agonist 1.6 and D2 potentiator -4.
For COc1cc(C)ccc1NC(=O)c1ccc(S(=O)(=O)N2CCOCC2)cc1 the results were CtBP-E1A blk 1, D2 agonist -1.6, Six1-Eya2 inh -1, PINK1 expr mod -1.3%, TRPML1 agonist -0.8 and D2 potentiator -11.
`COc1ccc(NC(=S)NCCc2ccccc2)c(C)c1` gave CtBP-E1A blk -3, D2 agonist -1.8, Six1-Eya2 inh -7, PINK1 expr mod -1.1%, TRPML1 agonist 1.1 and D2 potentiator 3.
Screening O=C(COC(=O)c1cc(Br)ccc1O)NNC(=O)c1cccs1 returned CtBP-E1A blk 30, D2 agonist -2.2, Six1-Eya2 inh -10, PINK1 expr mod -1.3%, TRPML1 agonist -0.7 and D2 potentiator -16.
`CC(C)Cc1nc(SCC(=O)N2CCCC2)c2c(=O)n(C)c(=O)n(C)c2n1` gave CtBP-E1A blk -23, D2 agonist -1.5, Six1-Eya2 inh 1, PINK1 expr mod -0.5%, TRPML1 agonist 0.3 and D2 potentiator -8.
`CCOC(=O)c1oc2ccc(Br)cc2c1CSc1nnc(C)s1` gave CtBP-E1A blk -1, D2 agonist -0.1, Six1-Eya2 inh 19, PINK1 expr mod -2.8%, TRPML1 agonist 5.9 and D2 potentiator 9.
For NS(=O)(=O)c1cccc(NC(=O)CCC(=O)c2cccs2)c1 the results were CtBP-E1A blk 0, D2 agonist -3.0, Six1-Eya2 inh -6, PINK1 expr mod 0.9% and D2 potentiator -5.
Screening O=C1CCCC/C1=C/NCc1ccccc1 returned CtBP-E1A blk 8, D2 agonist 3.8, Six1-Eya2 inh -1, PINK1 expr mod 0.5%, TRPML1 agonist 2.3 and D2 potentiator -3.
Cc1occc1-c1nnc(SCC(=O)Nc2ccccc2)n1CCc1ccccc1 was read as CtBP-E1A blk -1, D2 agonist -3.4, Six1-Eya2 inh -7, PINK1 expr mod -1.1%, TRPML1 agonist 0.5 and D2 potentiator -6.
CCN(CC)c1ccc(C=C2C(=O)OC(c3ccccc3)OC2=O)cc1 (configuration not stated) was read as CtBP-E1A blk 3, D2 agonist -1.3, Six1-Eya2 inh 12, PINK1 expr mod 2.4%, TRPML1 agonist 0.0 and D2 potentiator -7.
For CCCCCCc1nc2ccccc2c(=O)n1NC(=O)c1c(O)c2c(n(CC(C)C)c1=O)CCCC2 the results were CtBP-E1A blk -1, D2 agonist -3.4, Six1-Eya2 inh 6, PINK1 expr mod inconclusive, TRPML1 agonist -0.7 and D2 potentiator -7.

Quoted from the results shown for reference:
For COc1cc(C)ccc1NC(=O)c1ccc(S(=O)(=O)N2CCOCC2)cc1 the results were CtBP-E1A blk 1, D2 agonist -1.6, Six1-Eya2 inh -1, PINK1 expr mod -1.3%, TRPML1 agonist -0.8 and D2 potentiator -11.
`COc1ccc(NC(=S)NCCc2ccccc2)c(C)c1` gave CtBP-E1A blk -3, D2 agonist -1.8, Six1-Eya2 inh -7, PINK1 expr mod -1.1%, TRPML1 agonist 1.1 and D2 potentiator 3.

Carrying on:
Screening CC(=O)Nc1cccc(/C(C)=N/N2C(C)CCCC2C)c1 (configuration not stated) returned D2 agonist -1.2, Six1-Eya2 inh 6, PINK1 expr mod 0.1%, TRPML1 agonist 0.1 and D2 potentiator -3.
Screening COc1cccc(C(C)(O)c2nc(-c3cccc4cccnc34)cs2)c1 (configuration not stated) returned CtBP-E1A blk 3, D2 agonist 5.1, Six1-Eya2 inh -1, PINK1 expr mod 3.6%, TRPML1 agonist -0.7 and D2 potentiator 3.
COc1ccccc1N1CCN(CCc2n[nH]c(=S)n2-c2ccccc2)CC1 was read as CtBP-E1A blk 3, D2 agonist 1.9, Six1-Eya2 inh 1, PINK1 expr mod 2.2%[38.3 µM], TRPML1 agonist -0.2 and D2 potentiator -21.
Screening CCOC(=O)c1cnn(-c2nc(SC)nc3sc4c(c23)CCCC4)c1N returned CtBP-E1A blk 2, D2 agonist -5.9, Six1-Eya2 inh 4, PINK1 expr mod 20%, TRPML1 agonist 2.5 and D2 potentiator -5.
`COc1ccccc1NS(=O)(=O)c1cc(NC(=O)C2=NNC(=O)CC2)ccc1C` gave D2 agonist -2.3, Six1-Eya2 inh -1, PINK1 expr mod 3.2%, TRPML1 agonist 0.1 and D2 potentiator 0.
For COc1ccc(S(=O)(=O)N2CCN(c3ccccc3)CC2)cc1 the results were CtBP-E1A blk 12, D2 agonist -4.1, Six1-Eya2 inh -2, PINK1 expr mod 1.3%, TRPML1 agonist -0.5 and D2 potentiator -5.
`Cc1ccc(CN2CCN(Cc3ccc(C)s3)CC2CCO)cc1` (configuration not stated) gave CtBP-E1A blk 1, D2 agonist -2.9, Six1-Eya2 inh 0, PINK1 expr mod 4.0%, TRPML1 agonist -0.9 and D2 potentiator -2.
For CCO[C@H]1OC(C(N)=O)=C[C@@H](c2ccc(Br)cc2)[C@@H]1CCCO the results were CtBP-E1A blk 3, D2 agonist 1.2, Six1-Eya2 inh 6, PINK1 expr mod 1.7%, TRPML1 agonist -0.8 and D2 potentiator -11.
For CCOC(=O)c1c(NC(=O)COC(=O)/C=C/c2ccccc2)sc(C(=O)NC)c1C the results were D2 agonist -2.1, Six1-Eya2 inh 5, PINK1 expr mod 0.6%, TRPML1 agonist -0.3 and D2 potentiator 8.
CCOC(=O)NC(=O)/C(C#N)=C\c1ccccc1 was read as CtBP-E1A blk 13, D2 agonist -2.2, Six1-Eya2 inh 3, PINK1 expr mod 2.0%, TRPML1 agonist 1.8 and D2 potentiator -9.
`C[C@@H]1CN([C@@H](C)CO)C(=O)CCCn2cc(nn2)CO[C@H]1CN(C)S(=O)(=O)c1ccc(-n2cccn2)cc1` gave CtBP-E1A blk -8, D2 agonist -0.3, Six1-Eya2 inh 6 and PINK1 expr mod 2.2%.
Screening COc1ccc(C2N(C(=O)CN3CCCC3)CCCN2S(=O)(=O)c2ccccc2)cc1 (configuration not stated) returned CtBP-E1A blk -4, D2 agonist -0.3, Six1-Eya2 inh 7, PINK1 expr mod -2.2%, TRPML1 agonist -0.4 and D2 potentiator -9.

High-throughput results (PubChem BioAssay)
